Screens (PubChem)
VDR inhibitor = inhibitors of human vitamin D receptor | P11473 | Potency, µM, for the others: max response, negative = inhibition, actives largely listed as inhibitors | 400,000 tested, 0.93% active | AID 504847 | VDR-SRC2-3 peptide fluorescence polarization, 2 h; active = well fitted inhibition curve with a large enough effect; inconclusive = small, poorly fitted or top-dose-only effect, or another doubt; inactive = no such curve, though single readings can be large or run the other way; note: series mostly up to about 120 µM
Target sequence (P11473 whole entry, looked up): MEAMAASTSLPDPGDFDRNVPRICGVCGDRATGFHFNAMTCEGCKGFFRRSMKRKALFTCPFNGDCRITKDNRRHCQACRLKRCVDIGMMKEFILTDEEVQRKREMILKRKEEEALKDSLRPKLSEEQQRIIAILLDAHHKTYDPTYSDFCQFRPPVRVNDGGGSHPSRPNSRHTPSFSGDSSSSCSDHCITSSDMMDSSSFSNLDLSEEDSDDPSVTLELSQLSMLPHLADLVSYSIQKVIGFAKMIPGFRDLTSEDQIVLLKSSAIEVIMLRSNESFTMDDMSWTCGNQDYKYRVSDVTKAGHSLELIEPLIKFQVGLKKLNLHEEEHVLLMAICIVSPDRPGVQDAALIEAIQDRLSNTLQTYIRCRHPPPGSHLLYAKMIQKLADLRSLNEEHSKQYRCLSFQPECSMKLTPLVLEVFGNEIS
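Fluorescence polarization assay measuring small-molecule disruption of VDR binding to the coregulator peptide SRC2-3. Compounds were pin-transferred (23 nl) into the reagent mix and incubated 2 h at room temperature before reading.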
An asterisk follows results filed as active; ? = inconclusive; & = joins results of further samples; [ ] = another dose, or the depositor's remark. % is set by controls: 0 for no effect and ±100 for the full control effect; potency is the fitted concentration of half-maximal effect.

SMILES	VDR inhibitor
Cc1ccc(-n2ncc3c(SCC(=O)NNC(=O)C(C)C)ncnc32)cc1	-17.0%
CCn1c(O)c(N=Nc2ccc3ccccc3n2)c2ccccc21	-7.7%
O=[N+]([O-])c1ccc(S(=O)(=O)Nc2ccccn2)cc1	-8.0%
COCCNC(=O)c1cc2ncc(Br)cn2n1	-0.3%
O=[N+]([O-])c1cccc(S(=O)(=O)NC2CC3CCC2C3)c1 (configuration not stated)	-12.8%
CCCCCNCc1cccc(Br)c1	-9.4%
Cc1nn(Cc2ccccc2)c(Cl)c1/C=C/C(=O)OCC(=O)N(C)C1CCS(=O)(=O)C1 (configuration not stated)	9.6%
O=C(COC(=O)/C=C/c1ccco1)Nc1ncc(Cl)cc1Cl	-11.8%
CCCCCCCCc1nc(SCC(C)=O)n[nH]1	-14.4%
COc1ccc(C2/C=C\CN(C(=O)CC(C)(C)C)CC(=O)N2Cc2ccc(F)cc2)cc1 (configuration not stated)	3.4%&-5.2%
CCS(=O)(=O)N1CCN(C2Cc3ccccc3C2)CC1	-7.0%
CCN(C(=O)COC(=O)/C=C/c1ccc(S(=O)(=O)N2CCc3ccccc32)cc1)C1CCS(=O)(=O)C1 (configuration not stated)	12.5%
COc1ccc(Cl)cc1NC(=O)c1cc(-c2ccccc2O)n[nH]1	-0.2%
COc1ccc(C2(C)C(C#N)C(=O)NC(=O)C2C#N)cc1 (configuration not stated)	10.1%
O=C(Cn1c(=O)n(-c2ccccc2)c(=O)c2c3c(sc21)CCCC3)Nc1cccc(F)c1	-0.5%
Cc1oc(-c2ccc(Cl)cc2)cc1C(=O)/C(C#N)=C/Nc1cccc(OC(F)(F)F)c1	-7.8%
CC(=O)Nc1ccc(NC(=O)CSc2nc(N)c(NC(=O)c3ccccc3F)c(=O)[nH]2)cc1	-11.9%
CC(C)Cn1c(N)c(C(=O)COC(=O)c2cc(C(F)(F)F)nc3ccccc23)c(=O)n(C)c1=O	-5.2%
Cc1ccc(O)c(C(=O)/C=C/c2ccc3c(c2)OCCO3)c1	?
COc1ccc(C)cc1N1CC(C(=O)Nc2ccccc2C(=O)NC2CC2)CC1=O (configuration not stated)	-13.0%
Cc1ccc(C(=O)NCC(c2ccco2)S(=O)(=O)c2cccs2)cc1C (configuration not stated)	10.5%
Cc1ccc(C(=O)Nc2nc3ccc(Cl)cc3s2)o1	17.5%
CC(C)N1CCN(C(=O)c2ccc(OC3CCN(CCc4ccccc4)CC3)cc2)CC1	5.1%
Brc1cnc2ccccc2c1N1CCCCC1	-23.8%
Cc1cc(Cl)ccc1OCC(=O)Nc1c(Cl)ccc2nsnc12	4.7%
Cn1nnnc1SCC1=C(C(=O)O)N2C(=O)C(NC(=O)Cn3nc(C(F)F)cc3C3CC3)C2SC1 (configuration not stated)	-23.2%
COc1ccc2cc(-c3[nH]ncc3CN3CCCCO3)ccc2c1	1.2%
COCCNC(=O)CN(Cc1ccc(Cl)cc1)S(C)(=O)=O	0.4%
CN(C)C(=O)C(=O)c1c(-c2ccccc2)cc2ccccn12	-5.7%
CCc1cccc(C)c1NC(=O)Cn1nnc(-c2nc(-c3ccccc3F)no2)c1N	9.8%
CCOC(=O)c1sc(-c2ccc(Cl)cc2Cl)nc1O	1.8%
CCOc1ccccc1C(=O)N(CCC(=O)OC)c1ccccn1	24.1%
C=CCNC(=O)C1CCCN(S(C)(=O)=O)C1 (configuration not stated)	24.9%
Cc1onc(-c2ccccc2Cl)c1C(=O)Nc1ccc(S(=O)(=O)Nc2nccs2)cc1	2.4%
COC(=O)c1cc(Br)c(=O)n(-c2ccccn2)c1	-4.9%
CCNC(=O)CSc1nnc(C2CC2)n1-c1ccccc1	21.4%
CCc1ccc(NC(=O)C2CC(=O)Nc3ncnn32)cc1 (configuration not stated)	-1.6%
COc1ccc(NC(=S)N(CCc2c(C)[nH]c3ccc(C)cc23)Cc2cccs2)cc1	-10.8%
O=C(Nc1ccc(S(=O)(=O)Nc2ncccn2)cc1)c1ccc(Br)o1	-9.3%
Nc1nc(-c2ccc3ccccc3c2)cs1	-1.5%
C=CCc1c(C)nc(SC)nc1Nc1ccc(C)cc1	31.0%[activator]
COc1cc(OC)cc(C(=O)Nc2ccc(C(=O)Nc3ccccc3OC)cc2)c1	-2.3%
CN1C(=O)CC(N2CCN(CCN=CC3=C(O)CC(C)(C)CC3=O)CC2)C1=O (configuration not stated)	3.2%
COc1ccccc1NC(=O)Nc1cc(C(C)C)ccc1C	-16.3%
COCCCNC(=O)c1cc(C)nc2ccc(F)cc12	11.2%
CCc1cccc(CN2CCC(CNC(=O)Nc3ccc(Cl)cc3)CC2)c1	-1.6%
CCOCC(=O)Nc1cccc(Br)c1	8.5%
CC(C)c1ccc(NC(=O)CSc2n[nH]c(=O)n2Cc2ccco2)cc1	-19.3%
Cc1c(C(=O)NCc2ccc(OC(C)C)cc2)sc2ncnc(N(C)C3CCCCC3)c12	9.5%
COC(=O)C1=CO[C@@H](C)[C@@H]2CN3CCc4c([nH]c5ccccc45)[C@@H]3C[C@H]12	1.9%

Other results.
SMILES	VDR inhibitor
COc1ccc(C(=O)OC(C)CN2CCN(C)CC2)cc1 (configuration not stated)	5.0%
CC1CCC(NC(=O)CN(C)CC(=O)Nc2ccc(F)cc2)CC1 (configuration not stated)	7.0%
O=C(N1CCOCC1)N1CCN(S(=O)(=O)c2cccc([N+](=O)[O-])c2)CC1	5.9%
C=CCN(C(=O)C1CSC2(C)CCC(=O)N12)c1nc(-c2ccccc2)cs1 (configuration not stated)	-20.1%
Cc1c(C)c2ccc(OCC(=O)Nc3ccccc3C(N)=O)cc2oc1=O	-13.8%
COC(=O)c1cccc(COC(=O)c2cccnc2SC)c1	2.4%
CCOC(=O)c1cnc2c(ccc3ccccc32)c1N	-9.2%
COC(=O)c1ccc(C)c(NC(=O)Cn2c(C)csc2=O)c1	-1.6%
CCOc1ccc(CCNC(=O)c2cc3c(=O)n(C)c4ccccc4c3s2)cc1OCC	-5.0%
Cc1ccc(C(=O)Nn2cnnc2)cc1	3.8%
CCOc1ccc(NC(=O)c2c(Nc3ccccc3C)sc(C(=O)c3ccccc3)c2N)cc1	17.8%
O=C(Nc1ccc(Br)cc1)C1CCN(S(=O)(=O)c2cccc3nsnc23)CC1	-5.4%
O=C(OC(C(=O)Nc1ccc([N+](=O)[O-])cc1Br)c1ccccc1)c1ccccc1 (configuration not stated)	11.5%
CCNS(=O)(=O)c1ccc(NC(=O)c2cccnc2)cc1	0.2%
COCC1CCCN(Cc2nc(C(c3ccccc3)c3ccccc3)no2)C1 (configuration not stated)	-7.9%
COc1ccccc1C(=O)Nc1ccc2c(c1)nc(CCNC(C)=O)n2C	-5.5%
Nc1nc(COC(=O)c2ccc3c(c2)OCCO3)nc(Nc2ccccc2)n1	-1.4%
Oc1ccccc1C1=NN(c2ccccc2)C(c2ccc(F)cc2)C1 (configuration not stated)	-8.9%
CC(=O)NCC(=O)NC(Cc1ccccc1)C(N)=O (configuration not stated)	16.2%
CCCn1c2ccccc2c2cnn(CC(=O)N3CCCC(C(=O)OCC)C3)c(=O)c21 (configuration not stated)	8.2%
CC(=O)c1cn(-c2ccc([N+](=O)[O-])cc2)c(=O)n(C)c1=O	1.5%
O=C(Nc1cccc2ncccc12)c1cc2ccccc2o1	12.0%
Cc1ccc(C(=O)N2CCN(Cc3cc(=O)n4nc(-c5ccccc5)sc4n3)CC2)cc1	2.2%
CCC(COC)NCc1cn(-c2ccc(F)cc2F)nc1-c1ccccc1C (configuration not stated)	-24.4%
Cc1csc(SCC(=O)NC23CC4CC(CC(C4)C2)C3)n1	-1.8%
Cc1cccc(OCCCCn2c(C3CC(=O)N(c4ccccc4Cl)C3)nc3ccccc32)c1 (configuration not stated)	7.1%
N#C/C(=C\c1c(N2CCOCC2)nc2ccccn2c1=O)S(=O)(=O)c1ccccc1	-7.5%
Cc1ccc(CNC(=O)c2cnn(-c3cccc(C)c3)c2C2CCN(C(=O)OC(C)(C)C)CC2)cc1	6.1%
CC1CCN(c2nc3c(cc2C#N)COC(C)(C)C3)CC1	9.2%
COc1ccccc1NC(=O)CCn1c(=O)sc2ccccc21	-3.9%

Of the compounds above, 11 contain an aryl methoxy group.
SMILES	VDR inhibitor
COc1ccc(C2/C=C\CN(C(=O)CC(C)(C)C)CC(=O)N2Cc2ccc(F)cc2)cc1 (configuration not stated)	3.4%&-5.2%
COc1ccc(Cl)cc1NC(=O)c1cc(-c2ccccc2O)n[nH]1	-0.2%
COc1ccc(C2(C)C(C#N)C(=O)NC(=O)C2C#N)cc1 (configuration not stated)	10.1%
COc1ccc(C)cc1N1CC(C(=O)Nc2ccccc2C(=O)NC2CC2)CC1=O (configuration not stated)	-13.0%
COc1ccc2cc(-c3[nH]ncc3CN3CCCCO3)ccc2c1	1.2%
COc1ccc(NC(=S)N(CCc2c(C)[nH]c3ccc(C)cc23)Cc2cccs2)cc1	-10.8%
COc1cc(OC)cc(C(=O)Nc2ccc(C(=O)Nc3ccccc3OC)cc2)c1	-2.3%
COc1ccccc1NC(=O)Nc1cc(C(C)C)ccc1C	-16.3%
COc1ccc(C(=O)OC(C)CN2CCN(C)CC2)cc1 (configuration not stated)	5.0%
COc1ccccc1C(=O)Nc1ccc2c(c1)nc(CCNC(C)=O)n2C	-5.5%
COc1ccccc1NC(=O)CCn1c(=O)sc2ccccc21	-3.9%

Next part
SMILES	VDR inhibitor
COc1ccc(NS(=O)(=O)c2ccc(NS(C)(=O)=O)cc2)cc1	6.8%
COc1ccc(NC(=S)NCc2ccc(S(N)(=O)=O)cc2)cc1OC	2.7%
CN(C)c1oc(-c2ccccc2Cl)nc1C#N	-18.5%
CCOC(=O)N1CCN(C(=O)c2ccc(Oc3ccc([N+](=O)[O-])cc3)cc2)CC1	3.7%
COC(=O)COc1c(Cl)cc(Cl)c2ccc(C)nc12	-0.5%
COc1ccccc1NC(=O)C1CCC(CNc2c(N3CCCCC3)c(=O)c2=O)CC1 (configuration not stated)	2.5%
CCCCn1c(N)c(N(CCC(C)C)C(=O)CSc2nnc(C)s2)c(=O)[nH]c1=O	2.0%
Cc1ccccc1C(=O)NNC(=O)Cc1ccccc1	-15.4%
CC(OC(=O)CCCC(=O)Nc1ccc(F)cc1)C(=O)c1ccccc1 (configuration not stated)	-16.8%
CC(=O)c1ccc(NC(=O)Nc2ccc([N+](=O)[O-])cc2C)cc1	-19.5%
CC(=O)N1CCc2cc(S(=O)(=O)NCCCOC(C)C)ccc21	-5.0%
Clc1ccc(-c2nnc(SCc3nc4ccccc4s3)o2)cc1	6.1%
O=C(c1nnc(-c2ccncc2)o1)c1ccccc1Cl	5.0%
CCCCS(=O)(=O)Nc1ccc(Cc2ccncc2)cc1	3.2%
COc1cccc(/C=N/NC(=O)c2cccs2)c1	0.2%
CC(=O)c1cn(-c2ccc(Cl)cc2)c(=O)n(Cc2ccc(F)cc2)c1=O	-0.1%
CCS(=O)(=O)N1CCc2nc(-c3ccccc3)sc2C1	0.7%
COc1ccc(NC(=O)Nc2cccc3ccccc23)c(OC)c1	-1.0%
CCOc1ccc(C(=O)NCCSc2c(C)[nH]c3ccccc23)cc1OCC	5.3%
Cn1c(CNC(=O)c2ccc(Cl)cc2)nnc1SCC(=O)Nc1sc2c(c1C#N)CCCC2	21.4%
CCN(CC)CCn1c2c(c(SCC(=O)Nc3ccccc3Cl)nc1=O)CCCC2	-15.7%
Cc1cccc(OCC(=O)N2CCC3(CC2)CC(=O)c2ccccc2O3)c1	-8.0%
FC(F)(F)c1cccc(N2CCC(N=CN3CCCCCC3)=N2)c1	10.9%
COc1cccc(CNCc2cccc(Br)c2)c1OC	-0.2%
CCOC(=O)c1cnc2ccc(C)cc2c1Sc1ccc(F)cc1	-12.9%
Cc1c(C(=O)N2CCOCC2)oc2ccccc12	11.0%
O=C1Nc2ccc(S(=O)(=O)Nc3ccccc3O)c3cccc1c23	6.4%
O=c1[nH]ncc(N/N=C\c2ccc(O)cc2O)c1Cl	-2.9%
CC(=O)OCC(=O)C1(O)CCC2C3CCC4C(OC(C)=O)C(=O)CCC4(C)C3C(=O)CC21C (configuration not stated)	8.0%
Cc1nonc1NCn1nnc2ccccc21	-11.8%
COc1cc(/C=C(\C#N)c2ccccn2)ccc1OCc1ccccc1Cl	5.0%
Cc1ccc(/C(N)=N/OC(=O)CCc2ccccc2)cc1	0.3%
CCN(CC)CCCNC(=O)c1cn(CC(C)C)c(=O)c2c1c1ccccc1n2C	-1.2%
CC(C)(C)NC(=O)CSCc1ccc(Br)cc1	-1.6%
Cc1ccc(S(=O)(=O)Nc2cccc(C(=O)NCC(c3ccco3)N3CCCCC3)c2)cc1F (configuration not stated)	-18.4%
COc1ccc(C(=O)COC(=O)c2ccc(NC(C)=O)cc2)cc1[N+](=O)[O-]	11.4%
CSc1nnc(-c2sccc2-n2cccc2)o1	-11.2%
COc1cc(Cl)c(NC(=O)CN(C)S(=O)(=O)c2ccc3[nH]c4c(c3c2)CCCC4)c(OC)c1	5.7%
Cn1nc([N+](=O)[O-])c(C(C#N)c2nc3ccccc3n2C)c(Cl)c1=O (configuration not stated)	-3.1%
CCOc1ccccc1C(=O)NCC(=O)OCC(=O)c1ccc2c(c1)OCCO2	-6.9%
CC(C)c1nc2sc3c(=O)[nH]c(=S)[nH]c3c2c2c1CCCC2	70.8µM*
Cc1cc(NCc2ccccn2)n2nc(C)c(-c3ccc(Cl)cc3)c2n1	-10.1%
O=C(NCCS(=O)(=O)c1ccc(Br)cc1)c1ccc(Cl)cc1	-6.1%
Cc1cccc(C)c1NC(=S)NCCc1ccccn1	-13.3%
Cc1ccc(NC(=O)CN(C)C(=O)CSc2n[nH]c(N)n2)cc1	15.6%
CCOC(=O)C1CCCN(S(=O)(=O)c2cccc3cccnc23)C1 (configuration not stated)	0.6%
COc1cccc(C(=O)N/N=C/c2ccc(OC3CSC3)cc2)c1	17.7%

This is a subset; rates above refer to the full screens.
